# High-throughput results from PubChem BioAssay.
# AID504770 – growth inhibitors of E. coli YBA685 in a screen for V. cholerae RctB (chromosome II replication) inhibitors; hit rate 0.27% among 130,000; z-score (concentration not given with the values); AID 504770; E. coli YBA685 rctB-dependent plasmid, OD600 growth, 3 h; hits give low values;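 active = z-score under -2 on both plates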;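 note: wells of about 30 µL received 100 nL stock; score is relative to mean and SD of the test wells; the first replicate is given; strong numbers were not always called active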
# CapD inh – inhibitors of Bacillus anthracis CapD enzyme; AID 492967; z-score (test concentration not listed); hit rate 0.23% among 140,000; purified CapD enzyme, fluorescence intensity read-out; hits give low values; some hits fall short of the stated cut;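 active = z-score under -4 in either of two replicates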;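 note: stock transfer was 100 nL into about 40 µL; score is relative to mean and spread of the plate; one replicate is shown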
# * hit, by the source's call; . = no result given.
# The opening seven records, to show the layout:
# Sequence of screens: AID504770 | CapD inh
O=C(COc1ccccc1)Nc1cccc(-c2nc3cccnc3s2)c1
  -0.05 | 15
Cc1cc(C)n(-c2ccc(-n3cccc3/C=C(\C#N)S(C)(=O)=O)cc2)n1
  -0.05 | -0.32
Cn1c(C(=O)O)c(CNCc2cccnc2)c2ccccc21
  -0.35 | 7
O=C(CSc1ncnc2ccccc12)Nc1nccs1
  -0.25 | 0.23
CCOC(=O)c1ccc(NC(=O)CN(c2ccc(OC)c(OC)c2)S(=O)(=O)c2ccc(C)cc2)cc1
  . | -0.56
O=C1NC(=O)C(Cc2ccccc2)(Cc2ccccc2)N1
  0.2 | .
N#Cc1cccc(NC(=O)CCCC(=O)Nc2cccc(C#N)c2)c1
  -1.1 | -0.11

# Results, from the start:
# Sequence of screens: AID504770 | CapD inh
O=C(COc1ccccc1)Nc1cccc(-c2nc3cccnc3s2)c1
  -0.05 | 15
Cc1cc(C)n(-c2ccc(-n3cccc3/C=C(\C#N)S(C)(=O)=O)cc2)n1
  -0.05 | -0.32
Cn1c(C(=O)O)c(CNCc2cccnc2)c2ccccc21
  -0.35 | 7
O=C(CSc1ncnc2ccccc12)Nc1nccs1
  -0.25 | 0.23
CCOC(=O)c1ccc(NC(=O)CN(c2ccc(OC)c(OC)c2)S(=O)(=O)c2ccc(C)cc2)cc1
  . | -0.56
O=C1NC(=O)C(Cc2ccccc2)(Cc2ccccc2)N1
  0.2 | .
N#Cc1cccc(NC(=O)CCCC(=O)Nc2cccc(C#N)c2)c1
  -1.1 | -0.11
O=C(Cc1cccs1)N/N=C/C1CCCCC1
  -0.4 | .
COc1ccc(-n2c(C)nc3cc(C(=O)NCCc4ccc(OC)c(OC)c4)ccc32)cc1
  . | 0.24
C=C[C@@H]1CN2CCC1C[C@@H]2[C@H](O)c1ccnc2ccccc12 (stereo not given in full)
  . | 0.6
c1ccc(CSc2ncnc3sc4c(c23)CCCC4)cc1
  1 | 0.36
O=C(O)CCCSc1nc2ccccc2s1
  -0.95 | -0.55
N#CC(C(=O)NC1CC1)c1nc2ccccc2nc1N1CCCC1 (stereo not given)
  -1.8 | .
CC1=C(CC(=O)c2ccccc2)C(=O)c2ccccc2C1=O
  -1.2 | -0.56
O=C(O)CCNC(=O)c1ccccc1Cl
  -0.85 | -0.41
Cn1nccc1N1C(=O)c2ccccc2C1=O
  -0.25 | -0.27
O=C(C1CCCN1c1nnc(N2CCCC2=O)s1)N1CCc2ccccc2C1 (stereo not given)
  -0.45 | -0.07
COC(=O)NCC(c1cccnc1)N1CCOCC1 (stereo not given)
  -0.3 | 0.03
O=C(Cn1nnc(-c2cccc(C(F)(F)F)c2)n1)c1ccc2c(c1)OCCO2
  0.15 | .
COc1ccccc1NC(=O)c1c(NC(=O)c2ccc(C)cc2)sc2c1CCCCC2
  . | 4.8
O=c1[nH]c2cccnc2n1Cc1ccco1
  -0.4 | 0.81
ClC1C(Cl)C(Cl)C(Cl)C(Cl)C1Cl (stereo not given)
  -0.25 | -0.075
CCOC(=O)N1CCc2c(sc3[nH]c(=S)n(-c4ccccc4)c(=O)c23)C1
  -1.1 | -2.2
COc1cc(C=C2C(=O)NC(=O)NC2=O)cc(Cl)c1OCCOc1ccccc1C
  . | -0.15
N#Cc1ccc(-c2cn3c(n2)SCC3)cc1
  0.95 | 32
Cc1onc(-c2c(Cl)cccc2Cl)c1C(=O)OCCOc1ccc(C(F)(F)F)cc1[N+](=O)[O-]
  . | -0.26
Cc1cc(/C=C2\C(=O)NC(=O)N(c3ccccc3)C2=O)c(C)n1-c1cccc([N+](=O)[O-])c1
  . | -0.47
CC1(C)C2CCC1(CS(=O)(=O)N1CCCC1C(=O)O)C(=O)C2 (stereo not given)
  0.1 | .
Cc1ccsc1/C=C/C(=O)O
  1.1 | -0.6
O=C(NCC1CCCO1)c1ccc(-n2cc(-c3nc4ccccc4o3)cn2)cc1 (stereo not given)
  . | 1.8
CCOc1cc(C#N)cc(Br)c1OC(=O)c1oc2ccc(OC)cc2c1C
  2.1 | .
Cn1c(SCC(=O)N/N=C2/CC3CCC2(C)C3(C)C)nnc1-c1ccco1 (stereo not given)
  0.1 | .
CC(=O)Oc1ccc(N2C(=O)c3cccnc3C2=O)cc1
  1 | -0.93
c1cc(C(N2CCOCC2)N2CCOCC2)ccn1
  -0.4 | -0.32
COc1ccccc1CCOC(=O)NCCc1cccc(F)c1
  . | 0.47
Cn1c(=NC(=O)c2cccc(F)c2)sc2ccccc21
  -0.1 | .
CC(=O)Oc1ccccc1C(=O)N(C)C
  0 | 0.29
C=CCn1c2ccccc2c2nnc(SCc3ccccc3F)nc21
  0.3 | 0.26
CC1=C(C(=O)OC(C)C)C(c2ccc(Cl)c(Cl)c2)CC(=O)N1 (stereo not given)
  . | -0.17
O=C(CSc1nc2ccccc2o1)N=Nc1c(O)n(CN2CCCCC2)c2ccccc12
  1.4 | .
CC(NC(=S)NCCN1CCOCC1)C1CC2CCC1C2 (stereo not given)
  -0.6 | .
O=C1CC(NCc2ccccc2)C(=O)N1c1ccccc1 (stereo not given)
  -0.95 | 0.39
CCc1ccc2c(c1)c1nc(C)sc1n2C
  -1.2 | -0.9
OC(COCc1ccc2c(c1)OCO2)CN1CCN(c2ccc(F)cc2)CC1 (stereo not given)
  -0.25 | -0.89
CC1Cc2ccccc2N1c1ncnc2nc[nH]c12 (stereo not given)
  2.8 | -1
COc1ccc(-n2c(=O)c3c4c(sc3n3c(C)nnc23)CCCCC4)cc1
  . | 0.16
CC(=O)Nc1ccc(NC(=O)C(C)OC(=O)Cc2c[nH]c3ccccc23)cc1 (stereo not given)
  -0.4 | .
CCOC(=O)C1CCN(c2ncnc3c2cnn3-c2ccc(Cl)cc2)CC1
  . | -1.3
CCOc1ncccc1C(=O)NCc1ccc(S(N)(=O)=O)cc1
  0.9 | .
CSc1sc(-c2ccn[nH]2)c2c1C(=O)CC(C)(C)C2
  0.65 | -0.27
CCOC(=O)c1oc2c(c1C)/C(=N/OC(=O)c1ccccc1Cl)CCC2
  -0.5 | .
Cc1cc(S(=O)(=O)NCc2nn(-c3ccccc3)nc2C)c(C)s1
  -0.3 | -0.38
COC(=O)c1cc2sccc2n1Cc1ccc(Cl)cc1
  0.2 | 0.18
Cc1ccc(C23CC4CC(CC(C(=O)N(C)C)(C4)C2)C3)cc1
  . | -0.21
CC1CCCN(Cc2c(O)ccc3cc(-c4nc5ccccc5[nH]4)c(=O)oc23)C1 (stereo not given)
  1.1 | -0.88
COC(=O)c1ccc(CSc2nc(-c3ccc(OC)cc3)ns2)o1
  0.35 | 0.16
Cc1ccc(C(=O)c2ccc(Oc3ccccc3)cc2)cc1
  0.75 | -0.16
COc1ccccc1/C=C/C=N/NC(=O)c1cc(-c2ccco2)[nH]n1
  -0.55 | 2
Cc1csc2nc(CCNC(=O)CC3CCCC3)cn12
  -1.8 | .
C=CCn1c(COc2cccc3cccnc23)nnc1SCCC(=O)O
  -0.1 | 2.4

# Next section.
# Sequence of screens: AID504770 | CapD inh
Nc1nnc(CC(=O)N/N=C/c2cccs2)s1
  0.05 | -0.76
O=C(CSc1nc2c(c(=O)n1Cc1ccccc1)SCC2)NC1CCCC1
  0.55 | -1.1
COc1ccc(/C=C2\N=C(c3ccccc3)N(/N=C/c3cccnc3)C2=O)cc1
  1.4 | -0.2
Fc1cccc(Cl)c1C=NCc1ccc(Cl)cc1
  -0.5 | 0.21
COc1ccc(-c2nc3nc4ccccc4nc3n2CC2CCCO2)cc1 (stereo not given)
  -0.45 | .
CCC(CC)NC(=O)C1c2ccccc2Oc2ccccc21
  0.95 | -0.21
CSc1nc2cc(C3CC3)nn2c(N)c1S(=O)(=O)c1ccc(Cl)cc1
  0.45 | -0.33
Cc1ccccc1Cn1c(C)c(/C=C2\SC(N)=NC2=O)c2ccccc21
  -0.05 | -0.32
CC(C)CC(NS(=O)(=O)c1ccc2c(c1)CCCC(=O)N2)C(=O)N1CCOCC1 (stereo not given)
  -0.3 | 0.36
CN(C1CCCCC1)S(=O)(=O)c1ccc(S(=O)(=O)c2ccccc2)s1
  -0.4 | -1.2
O=C(N/N=C/c1cc2ccccc2o1)c1ccc2ccccc2c1
  . | 4.3
COc1ccc2[nH]c3c(=O)n(CCCCC(=O)NCc4ccccc4)c(=S)[nH]c3c2c1
  0.45 | 0.26
COc1ccc(C2/C(=C(\O)c3ccc(Cl)cc3)C(=O)C(=O)N2CCCN2CCOCC2)cc1 (stereo not given)
  . | -0.08
CC1(C)CC2CC(C)(CN2S(=O)(=O)c2cccc(C(N)=O)c2)C1 (stereo not given)
  0.3 | .
CCN(CC)C(=O)c1ccccc1Nc1ccc(SC(F)F)cc1
  -0.8 | .
O=C(NCCO)C1=Cc2ccccc2OC1
  -0.4 | -0.15
COc1ccc(/C=c2\s/c(=C\C(=O)c3ccco3)[nH]c2=O)cc1O
  -0.1 | .
CN1/C(=C\C=N\NC(N)=S)C(C)(C)c2ccccc21
  -0.4 | .
O=C1/C(=C\C2CC=CCC2)Cc2ccccc21 (stereo not given)
  . | 0.01
CCN(CC)c1ccc2c(c1)OC1(C)CC2/C(=C(\C)O)C(=O)N1 (stereo not given)
  . | -0.7
COc1ccc(C(=O)N2CCN(C(=O)c3ccco3)CC2)cc1S(=O)(=O)NCCc1ccccn1
  -1 | .
CSc1nsc(SCC(=O)C(C)(C)C)n1
  -0.4 | .
O=C(Oc1ccc(OC(=O)c2ccco2)cc1)c1ccco1
  0.85 | 0.49
CSc1sc(C(=O)NNC(=O)Cc2c(Cl)cccc2Cl)c2c1C1(CCC2)SCCS1
  . | 0.31
Cc1ccc2[nH]c(=O)c(CN(Cc3ccccc3)C(=O)c3ccco3)cc2c1
  2.1 | .
Nc1ccccc1-c1n[nH]c(C2CC2)n1
  1.2 | .
Cc1nn2cc(Cl)nc2s1
  0.5 | .
COC(=O)c1cnc(N(C)C2CCCCC2)c2ccccc12
  -1 | 7.7
C#CCN1C(=O)S/C(=C/c2cc(C)n(-c3ccc(OC)cc3)c2C)C1=O
  -0.15 | 0.02
CSC(=NS(=O)(=O)c1ccc(-n2nc(C(F)(F)F)cc2-c2cccs2)cc1)SC
  . | 1.1
COc1ccccc1Cn1cnc2cccnc21
  -0.55 | 0.085
O=C1NC(=O)C(=Cc2cc(Br)ccc2OCc2ccc(Cl)cc2)C(=O)N1
  . | -0.12
CC(C)(C)CC(=O)NC1CCCCCCC1
  0.45 | 0.55
CC(C)N(C(=O)CSc1nnc(NC2CC2)s1)c1ccccc1
  -1.1 | .
COc1cccc(N2C(=O)C(N3C(=O)c4c(Cl)c(Cl)c(Cl)c(Cl)c4C3=O)C2c2cccs2)c1 (stereo not given)
  . | -0.44
CCc1cc2c(=O)c(-c3nc(C)cs3)coc2cc1OC(C)C(=O)O (stereo not given)
  -0.95 | 2.3
O=C(Nc1ccccc1C(F)(F)F)c1ccccn1
  -0.35 | .
O=C(Cn1c(C(F)(F)F)nc2ccccc21)Oc1cc(Cl)ccc1Cl
  . | 0.27
CCOC(=O)c1cc(C(=O)OC)c(C)nc1NCc1ccc2c(c1)OCO2
  0.85 | 9.7
CC(C)NC(=O)CSc1n[nH]c(-c2ccncc2)n1
  0.1 | .
COc1ccc(-c2cnc(N)n2CC2CCCO2)cc1 (stereo not given)
  -1.2 | .
CC(=O)O/N=C(\C)c1nccs1
  -0.5 | 0.29
O=C(Nc1ccccc1)OCCNC(=O)c1cccc(Br)c1
  . | -0.12
CSc1sc(C(=O)NNC(=O)c2ccc3n[nH]nc3c2)c2c1C1(CCC2)SCCS1
  . | -0.53
O=C(O)C1CCCN1C(=O)c1cccs1 (stereo not given)
  . | -0.33
[O-]/[N+](=C/c1ccco1)c1ccccc1
  0.4 | .
O=C1c2ccccc2C(=O)N1C1C(=O)N(c2cccc(C(F)(F)F)c2)C1c1ccc(F)cc1 (stereo not given)
  . | -0.01
CCOC(=O)/C(C#N)=C\N1CCOCC1
  -0.25 | .
CCCN1C(=O)/C(=c2\sc3n(c2=O)C(c2ccccc2)C(C(=O)OC)=C(C)N=3)c2ccccc21 (stereo not given)
  -0.25 | .
Cc1ccc(-n2ccnc(SCC(=O)NCc3ccco3)c2=O)cc1C
  -0.45 | 15
O=C1c2ccc([N+](=O)[O-])cc2C(=O)N1C1C(=O)N(c2ccc(Cl)cc2[N+](=O)[O-])C1c1cccs1 (stereo not given)
  . | -0.13
COc1cccc2c1NC1CC(C)CCC1C2(C)C (stereo not given)
  0.15 | -0.16
CN(C)c1ccc(C2C3=C(CCCC3=O)Nc3[nH]c(=O)[nH]c(=O)c32)cc1 (stereo not given)
  -1.8 | .
O=C(Nc1ccccc1-c1nc2ccccc2[nH]1)c1ccccc1Br
  . | -0.41
Cc1nc2sc(C(=O)c3ccccc3)c(N)c2c(C)c1C(=O)Nc1ccccc1
  . | -0.78
CCOC(=O)N1CCC(NS(=O)(=O)c2ccc3[nH]c4c(c3c2)CCCC4)CC1
  -0.55 | 2.1
CCOC(=O)C1=CN(c2ccc(C)cc2)C=C(C(=O)OCC)C1c1cc(Br)ccc1OC
  . | 9.5
Cc1nc(C(=O)N/N=C/c2ccc(Oc3ccccc3)cc2)cs1
  . | 0.72
O=C1CNC(=S)N1CCC1=CCCCC1
  -0.45 | .
O=C(CN1C(=O)c2ccccc2C1=O)NC1CCCCC1
  0.85 | -0.54

# New compounds follow:
# Sequence of screens: AID504770 | CapD inh
Cc1cc(NC(=O)c2cccc(Oc3ccccc3)c2)n[nH]1
  0.25 | .
COc1cc2cc(C#N)c(SCC(=O)OC(C)C)nc2cc1OC
  0 | .
Cc1cc2oc(=O)cc(CN3CCCC(C)C3)c2cc1C(C)C (stereo not given)
  -0.3 | .
O=C(O)CCn1ccccc1=O
  -1.1 | .
COc1ccc(NC(=O)CS(=O)CC(=O)Nc2ccc(NC(C)=O)cc2)cc1 (stereo not given)
  -0.15 | .
O=C(O)c1cn(-c2ccc(F)cc2)c(=O)c2ccccc12
  2.2 | 3.2
